Tau fibril ThT – inhibitors of human tau fibril formation, thioflavin T binding; P10636; recombinant tau K18 P301L, heparin-induced fibrillization, ThT fluorescence; Potency, µM (doses to about 57.4 µM), inactives show at the highest dose activity, negative = inhibition, actives largely listed as inhibitors; 270,000 tested, 2.1% active; further: on the % scale 0 is the no-effect control and ±100 the full control effect; nearly all actives have a fitted effect of over 55% in size
Target sequence (P10636 561-689 P618L limits assumed): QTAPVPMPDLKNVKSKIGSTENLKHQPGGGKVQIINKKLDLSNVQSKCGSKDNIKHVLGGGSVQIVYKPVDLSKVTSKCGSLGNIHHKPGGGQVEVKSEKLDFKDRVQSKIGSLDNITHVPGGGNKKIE
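K18 P301L tau (15 uM + 0.24 uM Alexa 594-tagged), heparin 20 uM, NaOAc pH 7, 6 h 37 C; ThT 30 uM, 1 h RT, ex 450/em 510 nm.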
SMN2 splice enh – SMN2 splice variant enhancement. Potency, µM (titrated, usually from 46.1 µM), without a hit: at the top dose activity change, positive = activation, most hits filed as activators. 210,000 tested, 2.8% active. HEK293 SMN2-luciferase splicing reporter, luminescence, 30-36 h; further: % of control where 0% means no effect; nearly all actives have a fitted effect of over 55% in size
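HEK293 cells carry an SMN2 […]–luciferase reporter in which exon 7 inclusion puts luciferase in frame. Cells were plated 10-12 h before compound addition, then incubated 30-36 h at 37C. ONE-Glo luminescence was read; sodium butyrate at 4.5 mM final served as control.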
HTT cytoprotect – Huntington cell model cytoprotection by ATP luminescence. PC12 HTT-Q103 induced, cytoprotection, ATP luminescence, 40 h. Potency, µM (top dose mostly 56.4 µM), for inactives: cytoprotection (ATP increase), usual class: activators. 230,000 tested, 0.14% active. AID 1471;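 further: % of control where 0% means no effect; nearly all actives have a fitted effect of over 45% in size; toxic huntingtin expression switched on by the ecdysone agonist tebufenozide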
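PC12 cells with ecdysone-inducible HTT exon 1 Q103-GFP, induced with 100 nM tebufenozide and co-treated with library compounds in a dose series (1536-well, 1500 cells/well). Cytoprotection read as ATP content by ATPlite luminescence.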
KDM4E inh – blocks human JMJD2E demethylase activity. B2RXH2. JMJD2E catalytic domain, FDH-coupled NADH fluorescence (FDH is formaldehyde dehydrogenase). Potency, µM (series often up to 57.1 µM), without a hit: at the highest dose activity change, negative = inhibition, actives largely listed as inhibitors. 230,000 tested, 1.6% active. AID 2147; active means well fitted inhibition curve with a large enough effect, not every such curve was filed as active; inconclusive means small, poorly fitted or top-dose-only effect, or another doubt; inactive means no such curve, though single readings can be large or run the other way;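 further: 0% = wells with enzyme and -100% = buffer wells without enzyme; nearly all actives have a fitted effect of over 50% in size; many of its hits are not listed in these tables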
Target sequence (B2RXH2 1-337 limits assumed): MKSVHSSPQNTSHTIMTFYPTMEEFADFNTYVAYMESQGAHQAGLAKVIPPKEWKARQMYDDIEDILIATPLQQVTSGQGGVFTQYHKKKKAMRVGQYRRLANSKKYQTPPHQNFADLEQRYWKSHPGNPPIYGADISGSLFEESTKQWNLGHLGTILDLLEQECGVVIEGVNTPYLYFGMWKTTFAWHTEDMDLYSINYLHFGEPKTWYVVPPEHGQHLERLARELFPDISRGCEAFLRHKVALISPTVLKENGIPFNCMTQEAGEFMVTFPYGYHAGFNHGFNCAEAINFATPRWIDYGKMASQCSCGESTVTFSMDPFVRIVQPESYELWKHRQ
Tau fluor counter – counter-screen for tau fibril formation inhibitors; tau K18 P301L (four-repeat tau fragment) Alexa594 fluorescence, heparin fibrillization; Potency, µM (titrated, usually from 57.7 µM), inactives show at the highest dose activity change, negative = decrease; 280,000 tested, 0.93% active; further: on the % scale 0 is the no-effect control and ±100 the full control effect; nearly all actives have a fitted effect of over 55% in size
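Human K18 P301L tau (15 uM unlabeled plus 0.24 uM Alexa 594-labeled, final) in 100 mM sodium acetate pH 7 was mixed with compound and 20 uM heparin and incubated 6 hr at 37 C.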
Tau FP inhib – tau fibrillization inhibition (FP). K18 P301L tau heparin fibrillization, Alexa594 FP, 6 h. Potency, µM (series often up to 57.7 µM), without a hit: at the top dose activity, negative = inhibition, most hits filed as inhibitors. 280,000 tested, 0.39% active; further: on the % scale 0 is the no-effect control and ±100 the full control effect; nearly all actives have a fitted effect of over 55% in size
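Human tau K18 […] P301L fragment, 15 uM unlabeled plus 0.24 uM Alexa 594-labeled tau (final), with compound and 20 uM heparin in 100 mM sodium acetate pH 7; 6 hr at 37 C, then Alexa 594 FP read.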
HttQ103 aggreg – mutant huntingtin aggregation inhibition; PC12 HttQ103-GFP aggregates, Acumen cytometry, 40 h; Potency, µM (doses to about 46.1 µM), for inactives: top-dose activity change, negative = inhibition, hits mostly inhibitors; 220,000 tested, 1.1% active; AID 1688; further: on the % scale 0 is the no-effect control and ±100 the full control effect; nearly all actives have a fitted effect of over 60% in size
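Inducible Q103 Huntingtin exon 1–GFP PC12 line, 1500 cells/well in phenol red free DMEM with 5% equine and 5% calf serum. Tebufenozide 100 nM induced expression; compounds titrated; aggregates quantified by cytometry.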
Active calls of the source: *; ? = inconclusive; nt = no result given; & = joins results of further samples; [ ] = dose if it differs, or a comment. Unless noted, the call rests on the fitted dose curve; in most records, active means well fitted curve in the direction sought with a large enough effect; inconclusive means small, poorly fitted or top-dose-only effect, or another doubt; inactive means no such curve, though single readings can be large; an effect the other way counts as inactive or inconclusive. Potency means the concentration at half of the fitted maximal effect. These rows are one share of the data, so the mix of outcomes need not match the whole.

Values run as follows: Tau fibril ThT	Tau fluor counter	HttQ103 aggreg	HTT cytoprotect	SMN2 splice enh	Tau FP inhib	KDM4E inh
1	COc1ccccc1CNC(=O)COC(=O)c1ccc(Cl)c(N)c1
  -5%	-6%	-1%	-16%	5%	-6%	?
2	Cc1ccc(C)c(SCC(=O)OCC(=O)Nc2ccc(S(=O)(=O)N3CCOCC3)cc2)c1
  8%	?	-2%	13%[10 µM]	-3%	-8%	3%
3	COCCNC(=O)C(c1ccc(O)cc1)N(C(=O)CCC(=O)Nc1nccs1)c1cccc(C)c1 (configuration not stated)
  -15%	-18%	-4%[9.22 µM]	5%[10 µM]	nt	-8%	-7%
4	COc1ccc(N2CC(NC(=O)N3CCN(c4ccccc4)CC3)CC2=O)cc1 (configuration not stated)
  -9%	-6%	0%	3%	-28%	2%	6%
5	Cc1nc2nc3c(c(=O)n2[nH]1)CCC3
  -8%	-5%	-1%	-10%[0.074 µM]	5%	-4%	-3%
6	CS(=O)(=O)NCc1ccc(C(=O)O)cc1
  1%	0%	-10%	-12%	6%	2%	-4%
7	COC(=O)c1sc(NC(=O)C2CCCO2)c(C(=O)OC)c1C (configuration not stated)
  -16%	-5%	-13%	-2%	8%	4%	9%
8	CCOC(=O)c1c(C)[nH]c(C)c1C(=O)COC(=O)c1ccc(Cl)c(S(=O)(=O)NCc2ccccc2)c1
  -8%	?	4%	-4%	-2%	-21%	-8%
9	Cc1cccc(NC(=S)NNC(=O)CC(C)O)c1C (configuration not stated)
  0%	4%	8%	6%	0%	3%	2%
10	Cn1cnc([N+](=O)[O-])c1Sc1nc(N)nc2c1ncn2Cc1ccccc1
  nt	nt	nt	-25%[10 µM]	-11%[9.22 µM]	nt	nt
11	CNC(=O)c1csc(-c2ccc(C)cc2)n1
  -6%	-4%	8%	-22%	25%	-8%	-7%
12	Cc1cc(CCN2CCC(=O)NC2=O)ccc1OC(C)C
  -1%	6%	-7%	17%	5%	1%	5%
13	Cc1ccc(CN2CCN(Cc3ccon3)CC2CCO)cc1 (configuration not stated)
  -3%	3%	-8%[9.22 µM]	15%[10 µM]	nt	-5%	5%
14	CC(=O)Oc1ccccc1N(C(C)=O)S(=O)(=O)c1cccc([N+](=O)[O-])c1
  -13%	-2%	nt	nt	2%	-2%	9%
15	Cc1ccc(NC(=O)C2=CCN(S(=O)(=O)c3ccc(F)cc3)CC2)cc1
  -5%	-19%	-11%	nt	-5%	-11%	1%

Overlap with the part before: 7 compounds, then new ones.
Values run as follows: Tau fibril ThT	Tau fluor counter	HttQ103 aggreg	HTT cytoprotect	SMN2 splice enh	Tau FP inhib	KDM4E inh
9	Cc1cccc(NC(=S)NNC(=O)CC(C)O)c1C (configuration not stated)
  0%	4%	8%	6%	0%	3%	2%
10	Cn1cnc([N+](=O)[O-])c1Sc1nc(N)nc2c1ncn2Cc1ccccc1
  nt	nt	nt	-25%[10 µM]	-11%[9.22 µM]	nt	nt
11	CNC(=O)c1csc(-c2ccc(C)cc2)n1
  -6%	-4%	8%	-22%	25%	-8%	-7%
12	Cc1cc(CCN2CCC(=O)NC2=O)ccc1OC(C)C
  -1%	6%	-7%	17%	5%	1%	5%
13	Cc1ccc(CN2CCN(Cc3ccon3)CC2CCO)cc1 (configuration not stated)
  -3%	3%	-8%[9.22 µM]	15%[10 µM]	nt	-5%	5%
14	CC(=O)Oc1ccccc1N(C(C)=O)S(=O)(=O)c1cccc([N+](=O)[O-])c1
  -13%	-2%	nt	nt	2%	-2%	9%
15	Cc1ccc(NC(=O)C2=CCN(S(=O)(=O)c3ccc(F)cc3)CC2)cc1
  -5%	-19%	-11%	nt	-5%	-11%	1%
16	O=C(NN=C1CCCC1)c1n[nH]c2c1CCCC2
  -11%	5%	nt	nt	22µM*	1%	6%
17	COc1ccc(-c2nnc3sc(CCN4C(=O)c5ccccc5C4=O)nn23)cc1
  -6%	-2%	21%	-21%[0.074 µM]	-15%	-1%	0%
18	O=C1CC(c2cccs2)Cc2nc(NC(=O)C3CC3)ncc21 (configuration not stated)
  -16%	-11%	11%[9.22 µM]	-1%[10 µM]	nt	-8%	-8%
19	O=C(CCSc1ccccc1)NC1CCCCCC1
  -6%	-8%	5%	-4%	2%	-4%	10%
20	CC(C)(C)OC(=O)NCC(=O)N1CCC(C(=O)O)CC1
  -1%	4%	15%	2%	10%	-3%	12%
21	Cc1ccc(S(=O)(=O)/N=C2/NC(=O)/C(=C\c3ccco3)S2)cc1
  -10%	-9%	1%	-10%	-7%	-5%	-1%
22	Cc1cc(F)c(F)c(C(=O)N2CCOCC2)c1Cl
  -2%	4%	2%	-5%[10 µM]	8%	5%	8%
23	CN(C(=O)CO/N=C/c1ccc(Cl)cc1)c1ccccc1
  -11%	-4%	-10%	-22%	18%	-2%	-2%
24	CCOc1ccc(NC(=S)N2CCn3c(nc4ccccc43)C2)cc1
  -10%	-2%	-1%	5%[10 µM]	-10%	-6%	-4%
25	Cc1ccc(Oc2ncnc(N)c2[N+](=O)[O-])cc1
  ?	-21%	8%	?	-7%	-2%	-1%
26	CC1=C(C(=O)NCc2ccccc2)C(c2cc(Br)cc(Br)c2OC(C)C)NC(=O)N1 (configuration not stated)
  -2%	-6%	?	-10%[10 µM]	-1%	-1%	-9%
27	O=C(COC(=O)CNS(=O)(=O)c1ccccc1)Nc1ccc(Cl)cn1
  -7%	-9%	2%	-19%	0%	7%	-2%
28	CNC(=O)CN(c1ccc(C23CC4CC(CC(C4)C2)C3)cc1)S(C)(=O)=O
  6%	-1%	-2%[9.22 µM]	-30%[1.9 µM]	-29%	8%	-6%
29	CCN1CCN(c2nc(N)c([N+](=O)[O-])c(Nc3ccc(C)c(C)c3)n2)CC1
  -16%	-23%	12%	nt	-14%	3%	10%
30	Cc1onc(-c2ccccc2Cl)c1C(=O)OCn1nnc2ccccc2c1=O
  2%	-3%	-3%	17%[1.9 µM]	-11%	?	1%
31	CCOC(=O)CSc1nnc(NCC(=O)OC(C)C)c(=O)[nH]1
  ?	-1%	5%	6%	-16%	?	-8%
32	O=C(NCc1ccncc1)C(=O)NCC(c1ccco1)N1CCN(c2ccccc2F)CC1 (configuration not stated)
  -10%	-11%	-3%	2%[10 µM]	-10%[1.84 µM]	1%	6%
33	CCc1ccc(CN2CC(C(=O)O)CC2=O)cc1 (configuration not stated)
  -6%	-6%	-7%	-3%	24%	5%	1%
34	COc1ccc2[nH]cc(CCNS(=O)(=O)c3ccc(F)cc3)c2c1
  -17%	?	-9%[9.22 µM]	-16%[10 µM]	-34%[inhibitor]	9%	-9%
35	COc1ccc(C(=O)Nc2cccc3cccnc23)cc1OC
  ?	-24%	-7%	-19%[10 µM]	-14%	-7%	7%
36	CCOCC(=O)N1CCN(c2ccccc2OC)CC1
  -8%	0%	1%[9.22 µM]	-29%[1.9 µM]	-6%	4%	-9%
37	CC12CN(NC(=O)c3ccc(Cl)cc3)C3(C#N)CC1CCC23C (configuration not stated)
  -3%	-1%	10%	11%[10 µM]	6%	1%	12%
38	CCOC(=O)N1CCN(C(=O)c2ccc(N(Cc3ccc(C)cc3)S(C)(=O)=O)cc2)CC1
  -4%	-11%	0%	8%	-17%	-3%	12%
39	Cc1cc(C)cc(OCC(=O)Nc2ccc(N3CCN(C(=O)c4ccco4)CC3)cc2)c1
  ?	-21%	10%	23%[10 µM]	-37%[inhibitor]	4%	3%
40	O=C(Nc1cn(-c2ccccc2)nc1-c1cccs1)c1ccco1
  ?	?	-7%	-59%[inhibitor][10 µM]	2%	?	-9%
41	O=C(COC(=O)[C@H](Cc1ccccc1)NC(=O)c1cccs1)Nc1c(Cl)cccc1Cl
  2%	-17%	-4%	-1%[10 µM]	-9%	-10%	6%
42	COCCNC(=O)CSc1nccn1Cc1ccc2c(c1)OCO2
  -4%	-1%	18%	4%[10 µM]	?	3%	7%
43	CC1Cc2ccccc2N1CC(=O)NC(=O)NCc1ccccc1 (configuration not stated)
  -7%	-20%	-3%	-31%	15%	9%	4%
44	COc1ccc(-n2c(SCC(=O)N3CCN(c4ccccc4)CC3)nc3c(c2=O)SCC3)cc1
  ?	-26%	-3%	-33%	-14%	-2%	-2%
45	CC(=O)Nc1c(C)cc(OCC(=O)O)cc1C
  3%	-2%	-9%[9.22 µM]	-4%&0%[10 µM]	0%[9.22 µM]	4%	3%
46	CCCN(CCC)CCNC(=O)c1cc2c(C)nc3ccccc3c2o1
  6%	1%	-20%	-6%	-6%	1%	?
47	N/C(Cc1nc(-c2ccc(Cl)cc2)cs1)=N/O
  -21%	-12%	15%[9.22 µM]	5%[10 µM]	nt	4%	-8%
48	COc1cccc(CNc2ccc(S(N)(=O)=O)cc2)c1OCc1ccccc1F
  -11%	-21%	-4%	29%[10 µM]	-28%	3%	-4%
49	CCOC(=O)N1CCN(C(=O)CSc2ccc(-c3ccc(OC)c(OC)c3)nn2)CC1
  -12%	3%	-23%	-60%[inhibitor]	2%	?	-7%
50	CO/N=C/NC(=O)C1=NOC(CNc2ncc(C(F)(F)F)cc2Cl)C1 (configuration not stated)
  1%	-3%	-17%	1%	13%	4%	5%
51	COC(=O)CC(NC(=O)c1ccc(C)cc1)c1ccccc1 (configuration not stated)
  -7%	-5%	14%[9.22 µM]	-11%	-4%	3%	8%
52	CC(=O)Nc1cccc(N2C(=O)CCC2=O)c1
  1%	1%	2%	-22%	-5%	-3%	7%
53	NC(=O)C1CCN(C(=O)C23CC4CC(CC(C4)C2)C3)CC1
  0%	-3%	6%	-5%[10 µM]	-3%	-1%	1%
54	O=C(c1ccc(C(=O)N2CCCc3ccccc32)nc1)N1CCCc2ccccc21
  -5%	-13%	-7%	-1%	-12%	-12%	8%
55	CCCCn1c(SCn2nnc3ccccc3c2=O)nc2cc(S(N)(=O)=O)ccc21
  -10%	-11%	2%	10%	-14%	1%	-9%
56	Cc1cc2nc(SC(C)C(=O)O)[nH]c2cc1C (configuration not stated)
  -8%	-1%	7%	-25%[10 µM]	-3%	5%	-1%
57	CCOC(=O)c1[nH]c2ccc(F)cc2c1N=C(C)N(CC)CC
  -4%	0%	0%	-1%	9%	-4%	2%

High-throughput results deposited in PubChem BioAssay by National Center for Advancing Translational Sciences (NCATS).
